STK33 inh: inhibitors of human STK33 kinase; inhibition, % at 10 µM; 0.073% of 320,000 active; AID 2661; purified STK33, MBP phosphorylation, ADP-Glo luminescence; Q9BYT3;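 active = inhibition at or above 25%, using the most active replicate where run in duplicate; inactive = inhibition below 25%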
Target sequence (Q9BYT3 whole entry, looked up): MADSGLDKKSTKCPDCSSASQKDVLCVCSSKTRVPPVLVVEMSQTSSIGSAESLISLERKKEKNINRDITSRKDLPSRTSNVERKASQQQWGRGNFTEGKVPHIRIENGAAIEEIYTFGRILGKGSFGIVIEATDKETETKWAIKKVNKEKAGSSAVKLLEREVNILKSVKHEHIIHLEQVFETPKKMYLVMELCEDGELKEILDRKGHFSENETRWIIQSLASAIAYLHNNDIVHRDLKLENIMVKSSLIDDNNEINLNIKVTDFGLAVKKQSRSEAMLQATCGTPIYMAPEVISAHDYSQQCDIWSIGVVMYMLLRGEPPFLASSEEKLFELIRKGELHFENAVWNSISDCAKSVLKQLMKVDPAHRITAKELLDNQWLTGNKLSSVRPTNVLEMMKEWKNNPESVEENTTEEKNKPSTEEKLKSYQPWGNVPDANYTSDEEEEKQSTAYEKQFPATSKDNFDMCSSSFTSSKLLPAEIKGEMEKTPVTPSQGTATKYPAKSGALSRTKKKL
Starred values were filed as active, the others as inactive. Some of the compounds tested, and most or all hits are left out here.

The first 24 compounds, to show the layout:
SMILES	STK33 inh
COC(=O)c1ccc(C2C(Oc3ccc(OC)cc3)C(=O)N2CCc2ccc(F)cc2)cc1 (stereo unspecified)	2.2
COCCOC(=O)c1c(NC(=O)CN2CCc3ccccc32)sc(C(N)=O)c1C	-0.6
COc1ccc(CNC(=O)COC(=O)/C=C/c2ccc(Cl)cc2)cc1	0.2
COC(=O)c1c(NC(=O)C(C)(C)C)sc2c1CCN(Cc1ccccc1)C2	0.4
C=C(C)[C@@H]1CC[C@]2(C(=O)O)CC[C@]3(C)C(CCC4[C@@]5(C)CC[C@H](O)C(C)(C)C5CC[C@]43C)C12 (stereo partly specified)	0.5
CCOc1ccc(N/N=C(/C#N)C(N)=O)cc1	-0.9
Cc1ccc(/C=N/NC(=O)c2c[nH]c3ccccc23)o1	-2.8
CCN(CC)S(=O)(=O)c1cc(NC(=O)CNc2c(C)n(C)n(-c3ccccc3)c2=O)ccc1C	0.4
Cc1ccc(NC(=O)c2ccc(OCc3c(C)noc3C)cc2)cc1	-1.1
COc1ccc(-c2ccc(=O)n(Cc3ccc([N+](=O)[O-])cc3)n2)cc1	0.3
CC1(C(=O)CSc2nc3ccccc3s2)CCC(=O)O1 (stereo unspecified)	-0.4
C=CCN1C(=O)C(CC(=O)Nc2ccccc2)N(Cc2ccccn2)C1=S (stereo unspecified)	-0.1
Cc1cc(OCC(O)CN2CCc3ccccc3C2)ccc1Cl (stereo unspecified)	0.8
CC1CCC(NC(=O)c2ccc(CNc3c(NC4CCCCC4)c(=O)c3=O)cc2)CC1 (stereo unspecified)	-0.1
CC1(C)C(=O)Nc2ccccc2N1C(=O)CSc1nnc2ccccn12	-1.8
O=C1CCCC(=O)N1c1ccc(O)cc1	-1.1
CC(C)C(NC(=O)C(NC(=O)C1O[C@@H]2OC(C)(C)O[C@@H]2[C@H]2OC(C)(C)O[C@@H]12)C(C)C)C(=O)O (stereo partly specified)	-0.5
CCCCn1c(SCC(=O)c2ccc(OCC)cc2)nc2cc(S(N)(=O)=O)ccc21	-1.3
Cc1ccccc1-n1nc(C(=O)O)cc1-c1ccccc1	0.7
C#CCNC(=O)C1=C[C@H](c2ccc(Br)cc2)C[C@H](OCCCCO)O1	-1.7
CC(C)c1ccccc1NC(=O)CCCC(=O)O	-1.9
CCCSc1nnc(CNC(=O)C23CC4CC(CC(C4)C2)C3)n1Cc1ccccc1	-0.5
CCCc1cc(=O)n2[nH]c(NCc3c(Cl)cccc3Cl)nc2n1	-1.6
Cc1ccnc2nc(C(=O)NCc3ccccc3)nn12	0.3

The whole of this part, from the first entry:
SMILES	STK33 inh
COC(=O)c1ccc(C2C(Oc3ccc(OC)cc3)C(=O)N2CCc2ccc(F)cc2)cc1 (stereo unspecified)	2.2
COCCOC(=O)c1c(NC(=O)CN2CCc3ccccc32)sc(C(N)=O)c1C	-0.6
COc1ccc(CNC(=O)COC(=O)/C=C/c2ccc(Cl)cc2)cc1	0.2
COC(=O)c1c(NC(=O)C(C)(C)C)sc2c1CCN(Cc1ccccc1)C2	0.4
C=C(C)[C@@H]1CC[C@]2(C(=O)O)CC[C@]3(C)C(CCC4[C@@]5(C)CC[C@H](O)C(C)(C)C5CC[C@]43C)C12 (stereo partly specified)	0.5
CCOc1ccc(N/N=C(/C#N)C(N)=O)cc1	-0.9
Cc1ccc(/C=N/NC(=O)c2c[nH]c3ccccc23)o1	-2.8
CCN(CC)S(=O)(=O)c1cc(NC(=O)CNc2c(C)n(C)n(-c3ccccc3)c2=O)ccc1C	0.4
Cc1ccc(NC(=O)c2ccc(OCc3c(C)noc3C)cc2)cc1	-1.1
COc1ccc(-c2ccc(=O)n(Cc3ccc([N+](=O)[O-])cc3)n2)cc1	0.3
CC1(C(=O)CSc2nc3ccccc3s2)CCC(=O)O1 (stereo unspecified)	-0.4
C=CCN1C(=O)C(CC(=O)Nc2ccccc2)N(Cc2ccccn2)C1=S (stereo unspecified)	-0.1
Cc1cc(OCC(O)CN2CCc3ccccc3C2)ccc1Cl (stereo unspecified)	0.8
CC1CCC(NC(=O)c2ccc(CNc3c(NC4CCCCC4)c(=O)c3=O)cc2)CC1 (stereo unspecified)	-0.1
CC1(C)C(=O)Nc2ccccc2N1C(=O)CSc1nnc2ccccn12	-1.8
O=C1CCCC(=O)N1c1ccc(O)cc1	-1.1
CC(C)C(NC(=O)C(NC(=O)C1O[C@@H]2OC(C)(C)O[C@@H]2[C@H]2OC(C)(C)O[C@@H]12)C(C)C)C(=O)O (stereo partly specified)	-0.5
CCCCn1c(SCC(=O)c2ccc(OCC)cc2)nc2cc(S(N)(=O)=O)ccc21	-1.3
Cc1ccccc1-n1nc(C(=O)O)cc1-c1ccccc1	0.7
C#CCNC(=O)C1=C[C@H](c2ccc(Br)cc2)C[C@H](OCCCCO)O1	-1.7
CC(C)c1ccccc1NC(=O)CCCC(=O)O	-1.9
CCCSc1nnc(CNC(=O)C23CC4CC(CC(C4)C2)C3)n1Cc1ccccc1	-0.5
CCCc1cc(=O)n2[nH]c(NCc3c(Cl)cccc3Cl)nc2n1	-1.6
Cc1ccnc2nc(C(=O)NCc3ccccc3)nn12	0.3
Cn1cnnc1Sc1ccc(C(=O)OCC(=O)Nc2cc(Cl)cc(Cl)c2)cc1[N+](=O)[O-]	-1.0
Cc1ccc(OC(=O)c2cccc(C(=O)Oc3ccc(C)cc3)n2)cc1	-0.1
Cc1cc2c(cc1C)N(Cc1ccccc1)C1=NCCCN12	-0.6
Cc1ccc(-c2cc(C(=O)N/N=C/c3ccccc3)n[nH]2)o1	1.1
CCOC(=O)C1CCN(C(=O)c2cccnc2Cl)CC1	-0.6
COc1ccccc1N1CCN(CCCNC(=O)C2CCCN(c3ncnc4c3nc3n4CCCCC3)C2)CC1 (stereo unspecified)	-1.7
Cc1nc2ccccc2nc1N1CCCC1	0.5
CCOc1ccc(-n2c(SCC(=O)NCc3ccco3)nc3ccccc3c2=O)cc1	-1.0
COc1ccc(N(C(=O)Cn2nnc(-c3ccc(F)cc3)n2)C(C)C(=O)NC2CCCC2)cc1 (stereo unspecified)	-0.1
O=C(CN1C(=O)NC2(CCCCC2)C1=O)Nc1ccccc1Cl	-1.0
O=C(CCN1C(=O)/C(=C/c2ccccc2)SC1=S)Nc1cccnc1	-1.8
Nc1ccccc1Nc1ccccc1	-5.6
COCCn1nnnc1C(C(C)C)N1CCSCC1 (stereo unspecified)	-0.4
O=C(O)c1ccc(CSc2nc3ccccc3[nH]2)cc1	-0.8
C=CCN(CC=C)C(=O)C(=O)c1cc(C)n(-c2ccc([N+](=O)[O-])cc2)c1C	1.1
Cc1ccccc1NC(=O)NNC(=O)CCc1ccccc1	-1.7
COc1ccc(CN=C2Nc3ccccc3CS2)cc1	-0.5
Cc1ccc(S(=O)(=O)NCC(=O)NC2CCCCCC2)cc1	-2.2
CCc1ccc(/C=C2\SC(=S)N(CCC(=O)N3CCN(C)CC3)C2=O)cc1	-1.1
OCC(O)C(O)C(O)C(O)C1NCCS1 (stereo unspecified)	-3.9
Cc1ccccc1NCc1ccc(O)c2ncccc12	1.0
CCCc1c(C(=O)N/N=C/c2cccs2)nnn1-c1nonc1N	-0.2
CN1CCN(NC(=S)NC2CCCCC2)CC1	-2.1
CCOc1cccc2cc(C(=O)N3CCOCC3)c(=O)oc12	0.0
O=C(/C=C/c1ccco1)Nc1cc(Cl)ccc1C(=O)O	0.6
CN(C(=O)CSc1nnc(-c2ccco2)n1N)C1CCCCC1	-0.9
CC1(C)CC(OC(=O)c2ccccc2)CC(C)(C)N1	-1.1
CC/C(=N\NC(=O)c1ccc2c(c1)OCO2)c1ccccc1	1.1
NNC(=O)c1cc2cc(Oc3ccccc3)ccc2[nH]1	-15
CC(=O)N1CCN(C(=O)COc2ccc(N(C)S(=O)(=O)c3cccs3)cc2)CC1	-0.9
C1CC(CN2CCOCC2)CN(c2nc3nonc3nc2N2CCSCC2)C1 (stereo unspecified)	-0.6
CCCn1nc(NS(=O)(=O)c2cccc3nonc23)c2cc3cccc(C)c3nc21	-1.2
Cc1ccc(OCC(=O)Nc2cc(S(=O)(=O)N3CCCCC3)ccc2N2CCN(C)CC2)c(C)c1	-1.0
O=C(CN1C(=O)NC2(CCCc3ccccc32)C1=O)NC1CCCCC1 (stereo unspecified)	-2.2
COc1cccc(C(=O)CC(=O)C(=O)Nc2cc(Cl)c(OC)cc2OC)c1	-1.2
COC(=O)C(CC(C)C)NC(=O)c1cc(OC)c(OC)c(OC)c1 (stereo unspecified)	-1.7
(next part)
SMILES	STK33 inh
Clc1ccccc1Cc1noc(CN2CCN(Cc3ccccn3)CC2)n1	-2.6
COc1ccc(NC(=O)c2c([N+](=O)[O-])c(C(C)(C)C)nn2C)cc1	-0.9
COc1ccc(CCNC(=O)c2c(O)c3cccc4c3n(c2=O)CC4)cc1OC	-0.7
COc1ccc(Cc2nc(N)nc(N)n2)cc1	-0.8
CCOc1cccc(/C(O)=C2/C(=O)C(=O)N(Cc3cccnc3)C2c2ccco2)c1 (stereo unspecified)	-1.6
Cc1ccccc1C(=O)NNC(=O)/C=C\C(=O)O	-1.4
Cc1ccc2cc(CN(Cc3nnnn3Cc3ccco3)CC3CCCO3)c(=O)[nH]c2c1C (stereo unspecified)	0.1
Cn1c(=O)c2c(nc(SCCCO)n2Cc2ccccc2Cl)n(C)c1=O	-1.2
Cc1ccc(C(O)(CCN2CCCCC2)c2ccccc2)cc1 (stereo unspecified)	-0.8
Cc1ccc(C)c(OCCC(=O)NNC(=O)c2ccccc2)c1	-0.3
COc1ccccc1N1CCN(C(CNC(=O)c2ccc3c(c2)OCO3)c2cccnc2)CC1 (stereo unspecified)	-0.2
CCCOCCc1nnc(N)s1	-2.0
CCCC(=O)Nc1ccc(Cc2ccc(NC(=O)CCC)c(C(=O)O)c2)cc1C(=O)O	-0.7
COc1ccc(S(=O)(=O)Nc2cc3c4c(c2)CCN4C(=O)CC3)cc1C	0.1
O=C(Nc1ccc2c(c1)OCO2)c1cccc(S(=O)(=O)N2CCOCC2)c1	0.2

5 entries out of the list, sorted by formula weight, ascending:
SMILES	STK33 inh
Cc1ccc(C(O)(CCN2CCCCC2)c2ccccc2)cc1 (stereo unspecified)	-0.8
Cc1ccc(C)c(OCCC(=O)NNC(=O)c2ccccc2)c1	-0.3
Cn1c(=O)c2c(nc(SCCCO)n2Cc2ccccc2Cl)n(C)c1=O	-1.2
CCOc1cccc(/C(O)=C2/C(=O)C(=O)N(Cc3cccnc3)C2c2ccco2)c1 (stereo unspecified)	-1.6
CCCC(=O)Nc1ccc(Cc2ccc(NC(=O)CCC)c(C(=O)O)c2)cc1C(=O)O	-0.7

Carrying on:
SMILES	STK33 inh
CCN(CC)S(=O)(=O)c1cccc(C(=O)OC2CC(C)OC2=O)c1 (stereo unspecified)	-1.1
O=C1[C@@H]2Cc3c([nH]c4ccccc34)C(c3cccc(Br)c3)N2C(=O)CN1C1CCN(Cc2ccccc2)CC1 (stereo partly specified)	-0.6
CN(Cc1nccs1)C(=O)C1CCC(=O)N(CCc2ccc(Cl)cc2)C1 (stereo unspecified)	-0.1
Cc1ccccc1CC(=O)NC1CCCc2ccccc21 (stereo unspecified)	11
CCOC(=O)c1c(C)c(C(=O)Nc2ccccc2)c(C)n1CC	-0.6
CN(CCNC(=O)CCCOc1cc(=O)n(C)c2ccccc12)Cc1ccccc1	-1.4
Cc1ccc(N2C(=O)c3sc4nnc(C)c(=O)n4c3C2=O)cc1	-0.4
Fc1cccc(Cl)c1Cn1nnc(-c2ccc(N3CCOCC3)cc2)n1	-2.7
C1CCN(C2CCN(c3nc4nonc4nc3N3CCSCC3)CC2)C1	1.4
O=C1CSC(c2ccc([N+](=O)[O-])cc2)N1c1ccccc1F (stereo unspecified)	0.4
N=c1c(S(=O)(=O)c2ccc(Cl)cc2)cc2c(=O)n3ccccc3nc2n1CCc1ccccc1	-0.4
O=C(Nc1ccc(Cl)cn1)C1CCN(S(=O)(=O)c2cccs2)CC1	-1.4
COc1ccc(OC)c(Nc2ncnc3ccc(Br)cc23)c1	-0.4
O=C(COc1ccccc1)Nc1cccc2nsnc12	-0.9
Cc1nn(-c2ncc(C(F)(F)F)cc2Cl)c(=O)n1-c1c(F)cccc1F	0.8
Cc1cc(N2CCN(c3ccc([N+](=O)[O-])c4cccnc34)CC2)c2ccccc2n1	-0.9
COC(=O)c1ccc(OC(=O)c2ccccn2)cc1	-0.8
CCn1nc(C)cc1C(=O)N1CCc2c([nH]c3ccccc23)C1c1cc(F)ccc1F (stereo unspecified)	0.9
O=C(O)c1cc(O)ccc1NC(=O)C1CCCO1 (stereo unspecified)	-1.1
CC1(C)CC2CC(C)(CN2C(=O)COC(=O)c2cc(Cl)cc(Cl)c2N)C1 (stereo unspecified)	-1.4
CCN(CC(=O)NCc1ccc(Cl)cc1)CC(=O)NC1(C#N)CCCC1	1.6
CCOC(=O)CC(=O)Nc1ccccc1C(=O)O	-0.5
CCOc1ccc2nc(SCC(=O)Nc3cc4c(cc3C(C)=O)OCO4)[nH]c2c1	-0.5
Cc1ccccc1C(OCC(O)CN1CCCCC1CCO)c1ccccc1 (stereo unspecified)	-0.9
O=C(NNC(=O)c1ccc(Cl)cc1Cl)Nc1ccccc1	0.0
O=C1/C(=C\c2cccs2)Sc2ccc3ccccc3c21	-1.4
Nn1c(COc2ccccc2F)nnc1SCC(=O)NC1CCCC1	-2.4
Cc1cc(C)c(OCC(=O)OC(C)C(=O)NC2CC2)c(C)c1 (stereo unspecified)	2.5
O=C(Nc1ncn[nH]1)c1cc(S(=O)(=O)Nc2cccc(C(F)(F)F)c2)ccc1Cl	-2.3
CCN(CC)C(=O)CSc1nnc(CNc2ccc(F)cc2)o1	-1.5
CCCOc1cccc(C(=O)N2CCN(C(=O)C3CCCO3)CC2)c1 (stereo unspecified)	1.8
O=c1cc(-c2ccc(O)c(O)c2)oc2cc(O)c([C@@H]3O[C@H](CO)[C@@H](O)[C@H](O)[C@H]3O)c(O)c12	2.5
